VDR inh – Inhibitors of the vitamin D receptor (VDR): qHTS | 400,000 compounds, 0.93% hits | AID 504847, 2011 | Potency, µM, for the others: max response, negative = inhibition, most hits filed as inhibitors | VDR-SRC2-3 peptide fluorescence polarization, 2 h | Vitamin D3 receptor (Homo sapiens), P11473; active = well fitted inhibition curve with a large enough effect; inconclusive = small, poorly fitted or top-dose-only effect, or another doubt; inactive = no such curve, though single readings can be large or run the other way; note: series mostly up to about 120 µM
Target sequence (P11473 whole entry, looked up): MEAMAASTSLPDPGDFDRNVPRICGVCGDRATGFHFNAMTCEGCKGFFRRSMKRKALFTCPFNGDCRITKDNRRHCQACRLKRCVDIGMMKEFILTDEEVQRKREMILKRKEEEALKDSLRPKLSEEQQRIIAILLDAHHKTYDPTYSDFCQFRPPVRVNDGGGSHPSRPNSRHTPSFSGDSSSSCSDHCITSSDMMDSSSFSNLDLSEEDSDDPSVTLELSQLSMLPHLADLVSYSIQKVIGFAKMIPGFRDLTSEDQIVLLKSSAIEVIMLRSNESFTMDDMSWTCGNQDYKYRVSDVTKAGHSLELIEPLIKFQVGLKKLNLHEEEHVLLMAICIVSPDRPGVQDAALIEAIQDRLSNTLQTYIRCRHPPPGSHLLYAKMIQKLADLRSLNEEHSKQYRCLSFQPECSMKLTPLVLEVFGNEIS
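Reagent solutions, kept cold and dark, are dispensed first; compounds are then pinned in at 23 nl, plates briefly spun, and incubated 2 h at ambient temperature. Inhibition of VDR–SRC2-3 peptide binding is read by fluorescence polarization.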
Starred values were filed as active, the others as inactive; [ ] = dose if it differs, or a comment. % is set by controls: 0 for no effect and ±100 for the full control effect; potency is the fitted concentration of half-maximal effect. Some of the compounds tested. The share of hits here may be higher or lower than overall.

Sample of the layout, 23 compounds:
Screening CCCC(C)NC(=O)CSCc1ccc(OC)cc1 (configuration not stated) returned VDR inh -11%.
`COc1ccc(/C=C/C(=O)Nc2ccc(S(=O)(=O)Nc3cc(C)nc(C)n3)cc2)cc1OC` gave VDR inh 17%.
Screening CC1=NN(c2nc(-c3ccc(C)cc3)cs2)C(=O)C1N=Nc1ccc2ccccc2c1 (configuration not stated) returned VDR inh 15%.
COC(=O)CC1SC(=O)NC1=Nc1ccc(OC)cc1 (configuration not stated) was read as VDR inh 13%.
Screening COc1ccccc1CNC(=O)C1CCC(CNc2c(N3CCOCC3)c(=O)c2=O)CC1 (configuration not stated) returned VDR inh -4%.
`O=C1CS/C(=N/N=C\c2ccn[nH]2)N1` gave VDR inh -6%.
Screening COc1ccccc1-c1nc(C#N)c(N2CCC(Cc3ccccc3)CC2)o1 returned VDR inh -4%.
Screening CC(=O)NCCCNC(=S)NCCCN(Cc1ccc(Cl)cc1)c1ccc(Br)cn1 returned VDR inh -27%.
For COc1cccc(OC)c1CC1SC(=O)NC1=O (configuration not stated) the results were VDR inh 0%.
`CCOc1ccccc1CN1CCC(N2CCOCC2)CC1` gave VDR inh -23%.
For COC(=O)CNC(=O)c1c(C)cc(=O)oc1C the results were VDR inh 4%.
`Nc1nc(Nc2ccc(Cl)cc2)nc(NCc2ccco2)c1[N+](=O)[O-]` gave VDR inh -3%.
For CCc1ccccc1NC(=O)C1=CC(c2ccc3c(c2)OCO3)=NS(=O)(=O)N1C the results were VDR inh 19%.
C[C@H](CO)N1C[C@H](C)[C@@H](CN(C)C(=O)Nc2ccc3c(c2)OCO3)Oc2c(NC(=O)C3CCCCC3)cccc2C1=O was read as VDR inh -14%.
NC(=O)CSc1nnc(-c2ccc(S(=O)(=O)N3CCCC3)cc2)n1Cc1ccco1 was read as VDR inh 31%[activator].
`O=C(CN1c2ccccc2Sc2ccccc21)NNC(=S)Nc1ccc(Cl)cc1Cl` gave VDR inh -8%.
For CC(C)(C)c1ccc(C(=O)NN2C(=O)CSC2=S)cc1 the results were VDR inh -18%.
For COc1ccccc1NC(=O)Nc1c(C)nn(C)c1C the results were VDR inh -2%.
For COc1ccc(CCC(C)NCC(C)c2ccccc2)cc1 (configuration not stated) the results were VDR inh -5%.
For COc1cccc(OC)c1OCCCOc1c(OC)cccc1OC the results were VDR inh -4%.
For COc1cc(C(=S)N2CCOCC2)ccc1OC(=O)c1ccc(Br)cc1 the results were VDR inh -18%.
Screening Cc1cc(C(=O)COC(=O)CNS(=O)(=O)c2ccc3ccccc3c2)c(C)n1-c1ccccc1 returned VDR inh inconclusive.
CCOC(=O)C(C)c1ccc2cc(OC)ccc2c1 (configuration not stated) was read as VDR inh -8%.

Main list, previewed entries included:
Screening CCCC(C)NC(=O)CSCc1ccc(OC)cc1 (configuration not stated) returned VDR inh -11%.
`COc1ccc(/C=C/C(=O)Nc2ccc(S(=O)(=O)Nc3cc(C)nc(C)n3)cc2)cc1OC` gave VDR inh 17%.
Screening CC1=NN(c2nc(-c3ccc(C)cc3)cs2)C(=O)C1N=Nc1ccc2ccccc2c1 (configuration not stated) returned VDR inh 15%.
COC(=O)CC1SC(=O)NC1=Nc1ccc(OC)cc1 (configuration not stated) was read as VDR inh 13%.
Screening COc1ccccc1CNC(=O)C1CCC(CNc2c(N3CCOCC3)c(=O)c2=O)CC1 (configuration not stated) returned VDR inh -4%.
`O=C1CS/C(=N/N=C\c2ccn[nH]2)N1` gave VDR inh -6%.
Screening COc1ccccc1-c1nc(C#N)c(N2CCC(Cc3ccccc3)CC2)o1 returned VDR inh -4%.
Screening CC(=O)NCCCNC(=S)NCCCN(Cc1ccc(Cl)cc1)c1ccc(Br)cn1 returned VDR inh -27%.
For COc1cccc(OC)c1CC1SC(=O)NC1=O (configuration not stated) the results were VDR inh 0%.
`CCOc1ccccc1CN1CCC(N2CCOCC2)CC1` gave VDR inh -23%.
For COC(=O)CNC(=O)c1c(C)cc(=O)oc1C the results were VDR inh 4%.
`Nc1nc(Nc2ccc(Cl)cc2)nc(NCc2ccco2)c1[N+](=O)[O-]` gave VDR inh -3%.
For CCc1ccccc1NC(=O)C1=CC(c2ccc3c(c2)OCO3)=NS(=O)(=O)N1C the results were VDR inh 19%.
C[C@H](CO)N1C[C@H](C)[C@@H](CN(C)C(=O)Nc2ccc3c(c2)OCO3)Oc2c(NC(=O)C3CCCCC3)cccc2C1=O was read as VDR inh -14%.
NC(=O)CSc1nnc(-c2ccc(S(=O)(=O)N3CCCC3)cc2)n1Cc1ccco1 was read as VDR inh 31%[activator].
`O=C(CN1c2ccccc2Sc2ccccc21)NNC(=S)Nc1ccc(Cl)cc1Cl` gave VDR inh -8%.
For CC(C)(C)c1ccc(C(=O)NN2C(=O)CSC2=S)cc1 the results were VDR inh -18%.
For COc1ccccc1NC(=O)Nc1c(C)nn(C)c1C the results were VDR inh -2%.
For COc1ccc(CCC(C)NCC(C)c2ccccc2)cc1 (configuration not stated) the results were VDR inh -5%.
For COc1cccc(OC)c1OCCCOc1c(OC)cccc1OC the results were VDR inh -4%.
For COc1cc(C(=S)N2CCOCC2)ccc1OC(=O)c1ccc(Br)cc1 the results were VDR inh -18%.
Screening Cc1cc(C(=O)COC(=O)CNS(=O)(=O)c2ccc3ccccc3c2)c(C)n1-c1ccccc1 returned VDR inh inconclusive.
CCOC(=O)C(C)c1ccc2cc(OC)ccc2c1 (configuration not stated) was read as VDR inh -8%.
For CC(C)CN(C(=O)CCCc1nc2ccccc2c(=O)[nH]1)c1c(N)n(Cc2ccccc2)c(=O)[nH]c1=O the results were VDR inh -3%.
`COc1ccc(-c2cc(-c3ccccc3)nc(NN)n2)cc1OC` gave VDR inh -13%.
For O=C(CCCN1C(=O)NC2(CCCC2)C1=O)NCc1ccccc1 the results were VDR inh -9%.
`O=C(Cc1cccs1)NCc1ccncc1` gave VDR inh -16%.
`Cc1cc(NC(=O)Cc2ccccc2)c2ccccc2n1` gave VDR inh -1%.
For Cn1c(-c2ccccc2)cnc1NCc1ccc(-c2ccccc2)cc1 the results were VDR inh -5%.
CCOc1ccc(N(CC(=O)Nc2ccccc2CC)S(=O)(=O)c2c(C)[nH]c(=O)[nH]c2=O)cc1 was read as VDR inh 3%.
Screening COc1cccc(-n2c(SCC(N)=O)nnc2-c2c[nH]c3ccccc23)c1 returned VDR inh -5%.
Screening CCOC(=O)c1nnn2c1nc(Nc1cccc(C(F)(F)F)c1)c1ccccc12 returned VDR inh 28%.
COc1ccc(CNC(=O)C[C@H]2C[C@H](C(=O)N3CCCCC3)[C@@]3(CCc4ccccc4)c4[nH]c5ccc(Cl)cc5c4CCN3C2=O)cc1OC was read as VDR inh 3%.
Screening Nc1cnc(Br)cc1Br returned VDR inh -17%.
For Cc1cc(C(=O)CCC(=O)NCc2ccccc2F)c(C)s1 the results were VDR inh 17%.
O=C(C1=C[C@H](c2ccc3c(c2)OCO3)C[C@H](OCCCCO)O1)N1CCOCC1 was read as VDR inh -2%.
Cc1ccccc1NC(=S)N(C)CCc1ccccn1 was read as VDR inh -5%.
Screening Cc1cc(OC(=O)c2cc(-c3ccc4c(c3)OCCO4)on2)ccc1Cl returned VDR inh 10%.
COC(=O)CSc1nc(N)c(NC(=O)c2ccc(OC)c(OC)c2)c(=O)[nH]1 was read as VDR inh -9%.
For Cc1cccc(C(=O)OCC(=O)c2ccc3c(c2)OCCO3)c1O the results were VDR inh 19%.
Screening Cc1cc(S(=O)(=O)N2CCN(Cc3ccc4c(c3)OCO4)CC2)cc(C)c1N1CCCC1=O returned VDR inh 3%.
For CC[C@H](C)[C@@H](C(=O)NCCCCCCCCCCC(=O)N1CCNCC1)n1cc(CCCCN=C(N)N)nn1 the results were VDR inh -10%.
CCOn1c(=O)c(C)[n+]([O-])c2ccccc21 was read as VDR inh 6%.
For COc1ccc(CCNC(=O)C(=O)c2c(C)n(C)c3ccccc23)cc1OC the results were VDR inh 7%.
For CC(=O)c1ccc(NC(=O)C2Cc3ccccc3N2C(=O)c2ccccc2)cc1 (configuration not stated) the results were VDR inh -2%.
CCC1CCCCN1C(=O)CSc1n[nH]c(-c2ccccc2)n1 (configuration not stated) was read as VDR inh 8%.
COc1cc(CCC(=O)OCC(=O)NCc2ccc(Cl)cc2)cc(OC)c1OC was read as VDR inh 8%.
`Cc1cc(C(=O)CSc2nn(-c3ccccc3)c(=S)s2)c(C)n1Cc1ccco1` gave VDR inh 1%.
For COc1ccc(/C=C2\CCCc3c2nc2ccc(C)cc2c3C(=O)O)cc1O the results were VDR inh -9%.
CN(CC(=O)Nc1ccc(Cl)cc1)C(=O)c1ccc(NS(=O)(=O)c2ccc3[nH]c(=O)[nH]c3c2)cc1 was read as VDR inh 13%.
For Cc1ccc(-c2nc3cc(NC(=O)c4cc5ccccc5o4)ccc3o2)cc1Cl the results were VDR inh -9%.
CN(NC(=O)c1ccccc1F)c1ccc([N+](=O)[O-])cn1 was read as VDR inh 10%.
`Cc1cc(NC(=O)CSc2nc(=O)n3cccc(C)c3n2)no1` gave VDR inh -9%.
Screening CCCOC(=O)c1ccc(Cl)c(NC(=O)c2ccc(-c3ccccc3)cc2)c1 returned VDR inh -10%.
Screening COC(=O)CN1C(=O)[C@H]2[C@@H](C3CC3)N3C(=O)CN(Cc4ccccn4)C(=O)[C@@]3(Cc3ccccc3)[C@H]2C1=O returned VDR inh -13%.
Screening O=C(c1ccco1)N1CCN(S(=O)(=O)c2ccc(S(=O)(=O)NC3CC3)cc2)CC1 returned VDR inh -2%.
For COc1cc(C(=O)COC(=O)C2CCN(c3ccc(C(F)(F)F)cn3)CC2)ccc1OC(F)F the results were VDR inh -10%.
COc1ccc(C2=C/C(=C\c3cccc(OC(C)=O)c3)C(=O)O2)cc1 was read as VDR inh -7%.
CCCCCC1CC(CC(=O)Nc2ccc([N+](=O)[O-])cc2)OC1=O (configuration not stated) was read as VDR inh 8%.
`COc1cc(NC(=O)CSc2nnc3ccccn23)cc(OC)c1` gave VDR inh -13%.
`CCOC(=O)c1ccc(NC(=O)c2ccc3c(c2)C(=O)N(CC2CCCO2)C3=O)cc1` (configuration not stated) gave VDR inh -4%.
COCCCn1c(C(=O)N2CCOCC2)cc2c(=O)n3ccccc3nc21 was read as VDR inh 17%.
Screening Cc1cc(C)cc(Oc2c(C(F)(F)F)oc3cc(OCC(=O)O)ccc3c2=O)c1 returned VDR inh -14%.
Screening COc1ccc(OC)c(S(=O)(=O)Nc2cccc3ccc(O)cc23)c1 returned VDR inh 11%.
For CCOC(=O)C1CCN(C(=O)CSc2n[nH]c(-c3ccc(OC)cc3)n2)CC1 the results were VDR inh 6%.
For Cc1cc(C)c(NC(=O)CSc2nnc(-c3ccco3)n2N)c(C)c1 the results were VDR inh -8%.
Screening O=C(COC(=O)/C=C/c1ccc(F)cc1)NCC1CCCO1 (configuration not stated) returned VDR inh 2%.
Screening Cn1c(SCc2ccccc2)nc2c1c(=O)[nH]c(=O)n2C returned VDR inh -10%.
For Cc1nc2nc(-c3ccccc3)[nH]n2c(=O)c1C the results were VDR inh 1%.
Nc1nc(SCC(=O)Nc2ccccc2Sc2ccccc2)n[nH]1 was read as VDR inh 0%.
For CCOC(=O)C1=C(CSc2nc(CC)c(C)cc2C#N)OC(N)=C(C#N)C1c1ccccc1 (configuration not stated) the results were VDR inh 2%.
Screening c1csc(C(c2nnnn2C2CCCCC2)N2CCCC3(CCCCC3)C2)c1 (configuration not stated) returned VDR inh 20%.
For COc1ccc(N2C(=O)CC(c3cc(OC)c(OC)c(OC)c3)CC2=O)cc1 the results were VDR inh 0%.
For COc1cccc(/C=C/C(=O)Nc2ccc3c(c2)OCCO3)c1OC the results were VDR inh 4%.
O=C(CCCn1cnc([N+](=O)[O-])n1)Nc1cccc(Cl)c1Cl was read as VDR inh -15%.
CSCCC(NC(=O)c1ccccc1)C(=O)Nc1ccc(C)cc1 (configuration not stated) was read as VDR inh 6%.
For COc1cc(NC(=S)NN2CCN(C)CC2)cc(OC)c1OC the results were VDR inh 18%.
`NC(=O)[C@@H]1CCCN1C(=O)c1ccc2nc(Cc3cccc(Cl)c3)oc2c1` gave VDR inh -4%.
Cc1c(NC(=O)CSc2ccc3c(c2)OCCO3)c(=O)n(-c2ccccc2)n1C was read as VDR inh -8%.
For CCc1ccc(S(=O)(=O)c2nnn3c2nc(NCc2ccccc2OC)c2cc(Cl)ccc23)cc1 the results were VDR inh -4%.
For Cc1c(OCC(=O)N(C)c2ccccc2)ccc2c3c(c(=O)oc12)CCC3 the results were VDR inh 13%.
Screening Cc1cc(Sc2nnc(N)s2)c2ccccc2n1 returned VDR inh -11%.
Screening CCCCS(=O)(=O)N1CCCC(C(=O)NCCc2ccccc2)C1 (configuration not stated) returned VDR inh -8%.
For Cc1ccc(OC(=O)c2cncc(Br)c2)c(C)c1 the results were VDR inh 2%.
CCC1CCCCN1S(=O)(=O)c1ccccc1[N+](=O)[O-] (configuration not stated) was read as VDR inh 1%.
CCCCCC(=O)Nc1cccc(C2=NOC3(C2)C[C@@H](C(N)=O)N(C(=O)c2cc([N+](=O)[O-])cc([N+](=O)[O-])c2)C3)c1 (some centres not stated) was read as VDR inh 8%.
For Cc1ccc(N/N=C(\C#N)C(=N)N2CCOCC2)cc1 the results were VDR inh -17%.
Screening N#CC1=C(SCc2ccccc2Cl)NC(=O)C(C(N)=O)C1 (configuration not stated) returned VDR inh -4%.
Screening COc1cc(C(=O)N2CCCCCCC2)cc(OC)c1OC returned VDR inh 10%.
CCCCn1c(SCC2CCCCO2)nc2cc(S(N)(=O)=O)ccc21 (configuration not stated) was read as VDR inh 19%.
For COc1ccc(C2=CC(c3c(C)nn(-c4ccccc4)c3Cl)n3nnnc3N2)cc1OC (configuration not stated) the results were VDR inh 9%.
N#Cc1cc2ccccc2nc1SCC(=O)NC1CC1 was read as VDR inh 16%.
CSC(=S)NCc1cccnc1 was read as VDR inh -15%.
`CCn1c(/C(C#N)=C(\O)CCc2ccccc2)nc2ccccc21` gave VDR inh -2%.

Source: PubChem BioAssay
